# 2A StopGo: High Throughput Screening for Foot and Mouth Disease Virus Antivirals; human cells with a luciferase reporter of 2A StopGo recoding; control for the full effect not named in the record; Potency, µM (top dose mostly 57.9 µM), for the others: top-dose signal change, negative = less light; hit rate 1.2% among 410,000; active = well fitted falling curve with a large enough effect; inconclusive = small, poorly fitted or top-dose-only effect; inactive = no such curve, though single readings can be large or run the other way; tested in HEK293T cells; further: on the % scale 0 is the no-effect control and ±100 the full control effect; nearly all actives have a fitted effect of over 45% in size; luciferase light after 4 h
# RE007 growth inh: qHTS Assay for Inhibitors of the HIV-1 protein Vpr; S. pombe RE007 Vpr strain, BacTiter-Glo ATP luminescence, 24 h; control for the full effect not named in the record; Potency, µM (series often up to 92.2 µM), for the others: top-dose activity change, negative = less growth; AID 651644, 2012; hit rate 0.21% among 360,000; active = well fitted falling curve with a large enough effect; inconclusive = small, poorly fitted or top-dose-only effect; inactive = no such curve, though single readings can be large or run the other way;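 further: on the % scale 0 is the no-effect control and ±100 the full control effect; nearly all actives have a fitted effect of over 50% in size; the assay follows cell death caused by Vpr and the record does not say whether a fall means rescue or toxicity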
#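 Fission yeast strain RE007, carrying one chromosomally integrated HIV-1 vpr copy, was seeded at OD 0.01 in PMG+AL medium with 23 nL pinned compound. After 24 h at 30 °C and 99% humidity, viability was read by BacTiter-Glo luminescence.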
# Lassa entry inh: qHTS for Inhibitors of binding or entry into cells for Lassa Virus | AID 540256, 2011 | Potency, µM (doses to about 37.9 µM), inactives show at the top dose activity change, negative = inhibition, usual class: inhibitors | Lassa virus pseudotype entry inhibition, cell reporter; control for the full effect not named in the record | hit rate 1.2% among 300,000; active means well fitted inhibition curve with a large enough effect; inconclusive means small, poorly fitted or top-dose-only effect, or effect the other way; inactive means flat fitted curve, though single readings scatter; tested in HEK293 cells; further: on the % scale 0 is the no-effect control and ±100 the full control effect; nearly all actives have a fitted effect of over 50% in size; luciferase read-out
# NS1 inh: qHTS Assay for Inhibitors of Influenza NS1 Protein Function; S. cerevisiae slowed by influenza A NS1, growth recovery by OD600; Potency, µM (doses to about 46.1 µM), without a hit: at the highest dose activity, positive = more growth; hit rate 0.4% among 270,000; further: actives are rising curves; nearly all actives have a fitted effect of over 50% in size
#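 Recovery from NS1-induced slow growth read by OD600 in budding yeast switched to galactose assay medium (pH 6.0, -URA) at 1:100 dilution. Compound 23 nl per well; the matching strain lacking NS1 serves as control.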
# Cruzain noTriton: qHTS Assay for Promiscuous and Specific Inhibitors of Cruzain (without detergent); purified cruzain, Z-FR-AMC fluorescence, no detergent; hit rate 2.3% among 200,000; Cruzipain (Trypanosoma cruzi), P25779; Potency, µM, without a hit: max response, negative = inhibition, actives largely listed as inhibitors; active means well fitted curve in the direction sought with a large enough effect; inconclusive means small, poorly fitted or top-dose-only effect, or another doubt; inactive means no such curve, though single readings can be large; an effect the other way counts as inactive or inconclusive;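 further: plate controls were enzyme without inhibitor for no effect and buffer without enzyme for full effect; nearly all actives have a fitted effect of over 40% in size; top concentration of the series not given in the record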
# Target sequence (P25779 123-467 limits assumed): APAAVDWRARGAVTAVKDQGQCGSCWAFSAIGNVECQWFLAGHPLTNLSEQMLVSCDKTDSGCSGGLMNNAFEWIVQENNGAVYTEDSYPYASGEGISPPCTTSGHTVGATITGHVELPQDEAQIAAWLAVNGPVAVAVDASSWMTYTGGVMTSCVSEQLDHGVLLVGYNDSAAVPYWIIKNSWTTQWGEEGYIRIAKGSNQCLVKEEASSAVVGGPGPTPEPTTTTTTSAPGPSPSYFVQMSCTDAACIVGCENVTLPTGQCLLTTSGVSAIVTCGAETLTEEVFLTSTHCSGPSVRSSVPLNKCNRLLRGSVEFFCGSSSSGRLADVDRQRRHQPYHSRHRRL
#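 Detergent-free condition (0.00005% Triton X-100) in acetate buffer pH 5.5 with DTT. 1.5 nM enzyme and compound were pre-mixed 15 min, then 2 uM Z-FR-AMC substrate added; reaction progress from fluorescence change between first and third reads (60 s).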
# MARV entry inh: qHTS for inhibitors of binding or entry into cells for Marburg Virus | Potency, µM (series often up to 37.8 µM), for inactives: at the top dose activity change, negative = inhibition, hits mostly inhibitors | hit rate 1.8% among 300,000 | Marburg virus pseudotyped entry inhibition, cell reporter; control for the full effect not named in the record; about a third of the inactives were read at about 46 µM | AID 540276, 2011; active = well fitted inhibition curve with a large enough effect; inconclusive = small, poorly fitted or top-dose-only effect, or effect the other way; inactive = flat fitted curve, though single readings scatter; tested in HEK293 cells; about a fifth of its hits are not listed in these tables; further: on the % scale 0 is the no-effect control and ±100 the full control effect; luciferase read-out
# SARS PLP yeast: qHTS of Yeast-based Assay for SARS-CoV PLP. S. cerevisiae expressing SARS-CoV PLpro, growth rescue; control for the full effect not named in the record. Potency, µM (titrated, usually from 32.9 µM), without a hit: at the highest dose activity, positive = growth rescue. hit rate 0.19% among 330,000; further: 0% is about no effect; nearly all actives have a fitted effect of over 55% in size; growth read by luminescence after 48 h
# Cruzain inh Det: qHTS Assay for Promiscuous and Specific Inhibitors of Cruzain (with detergent) | hit rate 0.43% among 200,000 | Potency, µM, inactives show max response, negative = inhibition, actives largely listed as inhibitors | AID 1478, 2009 | purified cruzain, Z-FR-AMC fluorescence, 0.01% Triton; active means well fitted curve in the direction sought with a large enough effect; inconclusive means small, poorly fitted or top-dose-only effect, or another doubt; inactive means no such curve, though single readings can be large; an effect the other way counts as inactive or inconclusive;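 further: plate controls were neutral wells for no effect and buffer without enzyme for full effect; nearly all actives have a fitted effect of over 40% in size; top concentration of the series not given in the record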
#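 Cysteine protease activity tested under reducing, mildly acidic conditions (100 mM sodium acetate pH 5.5, 5 mM DTT) plus 0.01% Triton X-100. Cruzain 1.5 nM; substrate Z-FR-AMC 2 uM; 15 min compound preincubation at room temperature.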
# The depositor's hits bear a star; ? = inconclusive; . = not tested or not shown; [ ] = dose if it differs, or a comment. Unless noted, the call rests on the fitted dose curve; in most records, active means well fitted rising curve with a large enough effect; inconclusive means small, poorly fitted or top-dose-only effect; inactive means no such curve, though single readings can be large or run the other way. Potency means the concentration at half of the fitted maximal effect.
SMILES,2A StopGo,RE007 growth inh,Lassa entry inh,NS1 inh,Cruzain noTriton,MARV entry inh,SARS PLP yeast,Cruzain inh Det
CCCCN(C)C(=O)c1nc2ccccn2c1CN(C)Cc1csc(C)n1,0%,-11%,8%,5%,.,-21%[46.1 µM],1%,.
CN(Cc1ccccc1)C(=O)C1CCN(S(=O)(=O)c2ccc(-n3cnnn3)cc2)CC1,-20%,13%,-14%,-5%,.,-8%[46.1 µM],-1%,.
CCOC(=O)N1CCC(NC(=O)C(C)n2c3ccccc3c3cnn(C)c(=O)c32)CC1 (stereo unspecified),-8%,-1%,15%,8%,?,-5%,-2%,1.2%
COC(=O)C(CO)Nc1ncnc2onc(-c3ccc(F)cc3)c12 (stereo unspecified),9%,1%,?,-4%,.,11%,0%,.
CCOC(=O)C1CCN(CCC(=O)Nc2cc(C)ccc2C)CC1,-16%,-20%,27%[46.1 µM],5%,.,-2%[46.1 µM],-1%,.
CCNC(=O)NC(=O)C(C)OC(=O)c1oc2ccc(OCC)cc2c1C (stereo unspecified),-13%,8%,8%,0%,8%,-2%,-1%,-14%
COCCN(CCOC)c1nc(-c2ccc(Cl)cc2)nc2ccccc12,?,-17%,.,-34%,.,.,-17%,.
CCOC(=O)c1csc(NC(=O)CSc2nnnn2-c2cccc(OC)c2)n1,?,13%,-2%,-4%,-4%,-12%[46.1 µM],0%,-3.8%
CCOC(=O)N1CCN(c2ccc(C(C)=O)cc2F)CC1,6%,-16%,9%,4%[9.22 µM],9%,9%,6%,-0.6%
CCc1ccc(C(=O)Nc2nnn(CC)n2)cc1,-32%,19%,?,3%,11%,?,-11%,8.9%
CCCCCOP(=O)(c1ccccc1)c1ccccc1,-2%,-1%,5%,-5%,8%,-22%,-1%,-1.5%
Cc1onc(-c2ccccc2)c1C(=O)N/N=C/c1c[nH]c2ccccc12,?,30%,10µM*,3%,.,3%[46.1 µM],0%,.
COCCN(C(=O)CSc1nnc(Nc2ccccc2F)s1)c1c(N)n(Cc2ccccc2)c(=O)[nH]c1=O,57%[activator],-7%,2%,-6%,7%,?,-1%,-2.6%
CC(C)NC(NC(=O)/C=C/c1ccccc1)C(Cl)(Cl)Cl (stereo unspecified),-9%,7%,14%,-5%,.,-8%[46.1 µM],-1%,.
CCOc1ccc(-c2nc3n(c(=O)c2C#N)CCCS3)cc1,-8%,11%,7.1µM*,-2%,?,?,-7%,-3.5%
COCc1nn2c(N)c(-c3ccccc3)cnc2c1-c1ccccc1,23%,8%,?,8%,.,12%[46.1 µM],-2%,.
COC(=O)c1c(NC(=O)c2ccccc2F)sc2c1C(C(=O)OC)CC2 (stereo unspecified),18%,7%,.,10%,.,.,6%,.
Cc1ccc(C(=O)N/N=C\c2ccc(-c3ccc([N+](=O)[O-])cc3)o2)cn1,-3%,0%,-15%[46.1 µM],-7%,.,-2%[46.1 µM],-2%,.
Cc1c(Cl)cccc1NC(=S)NCc1ccc2c(c1)OCO2,5%,0%,-5%,-17%,-9%,?,22%,-5.5%
CCOC(=O)c1c(NC(NC(C)=O)C(Cl)(Cl)Cl)sc2c1CCCC2 (stereo unspecified),?,16%,?,-18%,-1%,?,-77%,-11%

# Random excerpt: five entries already listed
SMILES,2A StopGo,RE007 growth inh,Lassa entry inh,NS1 inh,Cruzain noTriton,MARV entry inh,SARS PLP yeast,Cruzain inh Det
CCCCN(C)C(=O)c1nc2ccccn2c1CN(C)Cc1csc(C)n1,0%,-11%,8%,5%,.,-21%[46.1 µM],1%,.
CCCCCOP(=O)(c1ccccc1)c1ccccc1,-2%,-1%,5%,-5%,8%,-22%,-1%,-1.5%
CCc1ccc(C(=O)Nc2nnn(CC)n2)cc1,-32%,19%,?,3%,11%,?,-11%,8.9%
CCOC(=O)c1c(NC(NC(C)=O)C(Cl)(Cl)Cl)sc2c1CCCC2 (stereo unspecified),?,16%,?,-18%,-1%,?,-77%,-11%
COCCN(CCOC)c1nc(-c2ccc(Cl)cc2)nc2ccccc12,?,-17%,.,-34%,.,.,-17%,.

# Single entries from the list.
# `COCCN(CCOC)c1nc(-c2ccc(Cl)cc2)nc2ccccc12` in SARS PLP yeast has -17%
# `CCOC(=O)N1CCC(NC(=O)C(C)n2c3ccccc3c3cnn(C)c(=O)c32)CC1` (stereo unspecified) in Lassa entry inh has 15%

# The results go on:
SMILES,2A StopGo,RE007 growth inh,Lassa entry inh,NS1 inh,Cruzain noTriton,MARV entry inh,SARS PLP yeast,Cruzain inh Det
CCc1ccc2[nH]c(=O)c(CN(Cc3ccc(F)cc3)C(c3nnnn3CCN3CCOCC3)C(C)C)cc2c1 (stereo unspecified),-6%,3%,-17%,18%,?,10%,2%,-7.8%
CC(C)CNC(=O)CSc1n[nH]c(=O)n1CCc1ccccc1,20%,3%,.,14%,.,.,1%,.
O=C(COc1ccccc1)NS(=O)(=O)c1ccc(Cl)cc1,-13%,6%,.,2%,.,.,2%,.
O=C(O)c1ccc(NC2=C/C(=N/S(=O)(=O)c3ccccc3)c3ccccc3C2=O)cc1,11µM*,?,7.1µM*,.,.,4µM*,-21%,.
CCCCOc1cccc(C(=O)NC(=S)Nc2cccc(C(F)(F)F)c2)c1,-21%,-1%,?,20%,1%,?,-2%,-4.8%
Cc1ccc(C(CC(=O)Nc2ccc(F)c(Cl)c2)N2Cc3ccccc3C2=O)cc1 (stereo unspecified),3%,.,4%[46.1 µM],.,-17%,.,.,-1.4%
COc1ccc(CNC(=O)CCS(=O)(=O)c2cc(Br)cc3c2N(C(=O)C2CC2)CC3)cc1,17%,.,-28%[46.1 µM],.,-9%,17%[46.1 µM],.,-5.3%
COc1cccc(CNC(=O)c2cc(=O)[nH]c3ccc(S(=O)(=O)N4CCCCC4)cc23)c1,-16%,.,?,.,7%,?,.,-1.8%
O=S1(=O)N(Cc2ccc(F)cc2)CCCN1Cc1ccccc1Cl,-10%,19%,?,-6%,.,-16%[46.1 µM],-6%,.
O=C(CNC(=O)c1ccc(Oc2ccccc2)cc1)OC1CCCCC1=O (stereo unspecified),6%,-1%,-2%,7%,-15%,?,20%,-16%
Cc1cccc(OCC(=O)Nc2ccc3c(c2)N(C)C(=O)c2ccccc2S3)c1,-7%,.,?,.,-14%,.,.,-2.3%
CN(C)CCCOC(=O)CCc1ccccc1,-8%,14%,-12%,-5%,11%,7%[46.1 µM],-3%,6.8%
C=CCOc1ccc2ccccc2c1CNc1ncn[nH]1,-8%,-7%,18%[14.3 µM],1%,3%,-28%,-2%,-3.1%
CC(=O)Nc1n[nH]c(=S)s1,5%,20%,3%,.,.,?,.,.
CC(C)C(C(=O)OCC(=O)c1ccc2c(c1)NC(=O)CO2)N1C(=O)c2ccccc2C1=O (stereo unspecified),?,-1%,-2%,-6%,-3%,-15%[46.1 µM],1%,-15%
CCN(CC)C(=O)c1cc(S(=O)(=O)N2CCCCC2)c[nH]1,-14%,4%,.,-5%,.,.,4%,.
O=C(Cc1ccccc1F)N1CCC(c2nc3c(nnn3Cc3cccc(Cl)c3)c(=O)[nH]2)CC1,-18%,.,.,.,?,-17%[46.1 µM],.,-2.6%
CCOC(=O)c1ccc(NC(=O)C(=O)NCc2ccccn2)cc1,5%,-7%,3%,-6%,.,13%[46.1 µM],-2%,.
Cc1ccccc1O,-8%,-12%,.,.,-2%,.,2%,3.8%
Cc1cccc(NC(=O)CSc2n[nH]c(-c3ccncc3)n2)c1,-4%,0%,3%,-8%,-3%,-10%,1%,1.4%
Cc1c(NC(=O)C(C)OC(=O)c2ccccc2O)c(=O)n(-c2ccccc2)n1C (stereo unspecified),-20%,?,3%,.,.,-15%,1%,.
COc1ccc(Cc2nnc(SCC(=O)Nc3ccc(C)cc3)n(N)c2=O)cc1,-9%,-6%,-4%,.,.,2%,0%,.
Cc1nn(Cc2nc(-c3cccs3)no2)c(C)c1Br,2%,2%,.,-24%,-1%,8%,-4%,-0.4%
Cc1cc(C)cc(NC(=O)C(=O)NC(C)c2ccccc2)c1 (stereo unspecified),-3%,.,-1%[46.1 µM],.,-3%,.,.,0.8%
COc1cc(NS(=O)(=O)c2ccc(C)cc2)ccc1-n1cnnn1,.,-5%,26%,4%,-2%,-7%,14%,-1.4%
CC(NC(N)=O)C(=O)OCc1ccc(Cl)cc1Cl (stereo unspecified),6%,29%,?,1%,4%,-35%[46.1 µM],6%,-4.6%
O=C(NN=Cc1ccc2c(c1)OCO2)NN=Cc1ccc2c(c1)OCO2,14%,-9%,?,.,.,?,.,.
O=C1CCCc2c1cnc1ncnn21,-12%,1%,-21%,-3%,.,11%[46.1 µM],0%,.
COC(=O)c1cccc2c1NC(=O)C2=O,-22%,-21%,?,-5%,.,?,0%,.
CC(C)(O)C#Cc1ccc(C(=O)N2CCCC(CNS(=O)(=O)c3cccs3)C2)o1 (stereo unspecified),28%,15%,.,-2%,.,.,-2%,.
CCC(=O)N1CCc2cc(Br)cc(S(=O)(=O)N3CCC(C(=O)Nc4cccc(C)c4)CC3)c21,-24%,.,-27%[46.1 µM],.,-2%,-23%[46.1 µM],.,-2.3%
O=C(CCC(=O)N1CCN(c2ccccc2F)CC1)N1CCN(c2ccccc2)CC1,-12%,7%,.,-14%,.,.,-1%,.
NC(=O)c1ccc(N2CCN(c3ccccc3F)CC2)c([N+](=O)[O-])c1,-19%,-1%,17%,.,.,-23%[46.1 µM],-1%,.
CC(C)COc1ccc(C(=O)NC(CC(C)C)C(=O)O)cc1 (stereo unspecified),16%,5%,4%,-76%,1%,27%,-2%,1.9%
